Assay outcomes as filed in PubChem BioAssay.
miR-21 FLuc – qHTS Assay for Modulators of miRNAs and/orActivators of miR-21. 340,000 tested, under 10 active. HeLa miR-21 FLuc reporter, luciferase, 48 h. Potency, µM (top dose mostly 38.3 µM), for the others: top-dose reporter change, positive = more light. AID 2288, 2010; active = well fitted rising curve with a large enough effect; inconclusive = small, poorly fitted or top-dose-only effect; inactive = no such curve, though single readings can be large or run the other way;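 also: % of control where 0% means no effect; miR-21 action dims this reporter so a rising signal means less miR-21 action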
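Compounds were titrated across several concentrations (up to approximately 40 uM) and incubated 48 hours with HeLa miR-21-FLuc reporter cells (miR-21 target sequence downstream of FLuc, endogenous miR-21). Readout was firefly luciferase luminescence after lytic detection reagent.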
GLA inh pH 4.5 – qHTS Assay for Inhibitors of Human alpha-Galactosidase at pH 4.5; purified enzyme, 4-MU-alpha-Gal fluorescence, pH 4.5; 230,000 tested, under 10 active; activity change, negative = inhibition, % at 105 µM; inconclusive = small, poorly fitted or top-dose-only inhibition, or a rising curve; inactive = flat fitted curve, though single readings scatter; no compound was filed as active;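 also: 0% = full activity with enzyme and -100% = basal without enzyme; dose as in the result columns while the protocol names 77 µM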
Rango complex inh – qHTS Assay for Inhibitors of Rango (Ran-regulated importin-beta cargo) - Importin beta complex formation; Importin subunit beta-1 (Homo sapiens), Q14974; Potency, µM (series often up to 92.2 µM), inactives show top-dose inhibition of complex formation; Rango CFP/YFP FRET sensor + importin beta, 45 min; 340,000 compounds, 0.031% hits; active = rising FRET ratio curve, often small or poorly fitted; inconclusive = mostly compound fluorescence or quenching in the first reads; inactive = flat curves in all reads;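 also: potency is read from the fitted curve at half-maximal effect; 0% = DMSO wells and 100% = buffer wells lacking importin beta; nearly all actives have a fitted effect of over 15% in size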
Target sequence (Q14974 whole entry, looked up): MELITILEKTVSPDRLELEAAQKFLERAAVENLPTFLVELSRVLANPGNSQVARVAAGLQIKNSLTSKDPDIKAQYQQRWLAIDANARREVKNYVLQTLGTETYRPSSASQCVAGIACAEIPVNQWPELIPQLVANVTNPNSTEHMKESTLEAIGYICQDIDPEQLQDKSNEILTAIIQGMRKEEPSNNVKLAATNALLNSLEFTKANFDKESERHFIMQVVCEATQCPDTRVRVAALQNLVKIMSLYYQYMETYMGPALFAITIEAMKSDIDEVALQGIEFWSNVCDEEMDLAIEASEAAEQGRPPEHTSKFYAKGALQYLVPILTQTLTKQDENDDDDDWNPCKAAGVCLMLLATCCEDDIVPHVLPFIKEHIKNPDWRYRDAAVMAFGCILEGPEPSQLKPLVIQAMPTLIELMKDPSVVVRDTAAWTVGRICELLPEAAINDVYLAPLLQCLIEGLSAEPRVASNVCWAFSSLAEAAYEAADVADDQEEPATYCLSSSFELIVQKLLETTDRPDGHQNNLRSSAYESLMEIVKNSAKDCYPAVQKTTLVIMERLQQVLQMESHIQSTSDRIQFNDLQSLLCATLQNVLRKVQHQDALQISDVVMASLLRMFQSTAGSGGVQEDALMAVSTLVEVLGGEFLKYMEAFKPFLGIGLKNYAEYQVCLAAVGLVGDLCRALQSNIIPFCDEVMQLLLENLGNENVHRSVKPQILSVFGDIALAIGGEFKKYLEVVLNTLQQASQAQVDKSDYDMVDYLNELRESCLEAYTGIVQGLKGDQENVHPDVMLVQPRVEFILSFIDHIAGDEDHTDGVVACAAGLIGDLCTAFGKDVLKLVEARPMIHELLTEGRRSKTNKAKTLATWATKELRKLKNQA
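Inhibition scored from the CFP 486 nm/YFP 530 nm FRET ratio 45 min after adding 0.125 microM importin beta to 50 nM Rango biosensor preincubated 5 min with compound (room temperature, PBS with DTT, Tween-20, BSA). No-importin wells as positive control.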
Rango dissoc inh – qHTS Assay for Inhibitors of RanGTP induced Rango (Ran-regulated importin-beta cargo) - Importin beta complex dissociation; Biochemical FRET Rango-importin beta, RanGTP-induced dissociation; Snurportin-1 (Homo sapiens) + GTP-binding nuclear protein Ran (Homo sapiens) + Importin …; 340,000 compounds, 0.071% hits; Potency, µM (doses to about 46.1 µM), for the others: top-dose activity change, negative = inhibition; active means falling FRET ratio curve, often poorly fitted, with flat reads before Ran was added; inconclusive means other falling curves, or compound fluorescence or quenching; inactive means flat or rising ratio curve;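 also: potency is read from the fitted curve at half-maximal effect; % of control where 0% means no effect; nearly all actives have a fitted effect of over 45% in size; -100% = wells without RanGTP and RCC1; the record marks most hits as doubtful in a second field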
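Rango FRET biosensor (snurportin-1 IBB flanked by N-terminal EYFP and C-terminal CFP10) at 0.1 uM, with 0.25 uM importin beta in PBS, 1mM DTT, 0.02% Tween-20, 0.1% BSA. 0.6 uM Ran, 2mM GTP and 0.2 uM RCC1 were then added for 45 min at room temperature. Inhibition read as loss of FRET rise.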
* = called active by the depositor; ? = inconclusive; / = no result given; & = joins results of further samples; [ ] = remark or other dose. A portion of the library. The share of hits here may be higher or lower than overall.

miR-21 FLuc	GLA inh pH 4.5	Rango complex inh	Rango dissoc inh	SMILES
-4%	1	-0.8%	-10%	CCC(CC)C(=O)NCCc1ccc(OC)cc1
1%&-3%	6	/	/	CNS(=O)(=O)c1ccc(NC(=O)c2nc3nc(C)cc(C(F)F)n3n2)cc1
/	/	1.5%	2%	CC(C)c1ccccc1OCC(=O)Nc1nnc(C2CC2)s1
5%	5	-1.5%	-2%	COc1ccc(S(=O)(=O)N2CCCC2C(=O)Nc2nnc(-c3cccnc3)s2)cc1 (stereo not given)
-16%	-18	-0.6%	-9%	Cn1c(N)c(C(=O)Nc2ccccc2F)sc1=S
0%	/	-0.8%	5%	COc1ccc(OC)c(C(C(=O)NC2CCCCC2)N(C(=O)c2snc(C(N)=O)c2N)c2ccccc2OC)c1 (stereo not given)
/	/	3.6%	0%	N#CC1(NC(=O)COC(=O)c2ccc(-c3ccc(O)cc3)cc2)CCCCC1
1%	9	6.2%	2%	NC(=S)NNC(=S)Nc1ccccc1

Other results.
miR-21 FLuc	GLA inh pH 4.5	Rango complex inh	Rango dissoc inh	SMILES
-1%	-4	5.9%	0%	Cc1ccc2c(c1)C(SCC(=O)NCCc1ccccc1)CC1(CCCC1)O2 (stereo not given)
-2%	-25	-0.4%	-1%	C=CCN(c1cccc(C(F)(F)F)c1)S(=O)(=O)c1cccc(C(=O)OCC(=O)NCCC)c1
-4%	0	-0.6%	-7%	C=CCn1c(SCC(=O)C23CC4CC(CC(C4)C2)C3)nc(O)cc1=O
-5%	-4	-6.4%	-4%	CN1/C(=C/C(=O)C2CC2)C(C)(C)c2ccccc21
7%	-14	-0.5%	?	COc1ccc(NC(=O)CN2CCC(NC(=O)C3CCCCC3)CC2)c([N+](=O)[O-])c1
-42%&-35%	3[21.1 µM]	-1.1%	2%	Cc1ccc(O)c(NC(=O)c2noc3c2CCCCC3)c1
1%&6%	/	-3.0%	-9%	O=C(Cn1ncc2c([nH]c3ccccc32)c1=O)NCCCN1CCN(c2ccccc2)CC1
17%	6	0.8%	-4%	O=C(c1cc(-c2cccs2)nc2ccccc12)N1CCN(S(=O)(=O)c2cccc(F)c2)CC1

(list continues)
miR-21 FLuc	GLA inh pH 4.5	Rango complex inh	Rango dissoc inh	SMILES
/	/	4.4%	3%	C=CCC[C@@H](Cc1ccc(F)cc1)C(=O)OC[C@H](C)NC(=O)[C@@H](CC=C)CC(=O)N[C@@H](CO)Cc1ccccc1
-28%	/	-3.7%	15%	O=C(NNCc1ccc(O)cc1)c1ccccc1Cl
8%	/	-0.2%	1%	COc1cc(=O)[nH]c(SCC(=O)Nc2ccc3ccccc3c2)n1
20%	-2&-7	2.0%	2%	O=C(O)c1cc(O)c2c(c1)C(=O)c1cc(O)cc(O)c1C2=O
5%	-6	-1.3%	9%	CNC(=O)Nc1cc(C(F)(F)F)cc(C(F)(F)F)c1
-1%	3	3.1%	-18%	Cc1ccc(N=CC2=C(O)CC(C)(C)CC2=O)nc1
-8%	-2	0.2%	-26%	O=C(NNC(=S)NC(=O)c1ccccc1[N+](=O)[O-])c1ccc(Cl)cc1Cl
4%	-6	-3.6%	8%	O=C(NNc1c(Cl)cc(Cl)cc1Cl)c1cccc([N+](=O)[O-])c1

Following part.
miR-21 FLuc	GLA inh pH 4.5	Rango complex inh	Rango dissoc inh	SMILES
-12%	4	2.6%	2%	Fc1ccccc1Nc1nc(-c2ccncc2)nc2ccccc12
/	/	?	-19%	COc1ccc(C(=O)Cn2c(C(C)=O)nc3ccccc32)cc1
-7%	1	5.3%	-8%	CC1(C)CC2CC(C)(CN2C(=O)Cc2ccccc2)C1 (stereo not given)
/	/	0.4%	-3%	Cc1cccc(C(=O)OC(C)C(=O)NCC2CCCCC2)c1O (stereo not given)
-28%	2	1.2%	-1%	COc1ccc([N+](=O)[O-])cc1NCc1ccco1
6%	6	-6.0%	1%	COc1ccc(NC(=O)CSc2nc(O)cc(=O)n2C)cc1
-31%	/	0.5%	14%	COc1cc(/C=N/NC(=O)c2ccc3c(c2)OCO3)ccc1O
-8%	8	3.9%	12%	Cn1cccc1CC(=O)N/N=C/c1cccc([N+](=O)[O-])c1

(further entries)
miR-21 FLuc	GLA inh pH 4.5	Rango complex inh	Rango dissoc inh	SMILES
-11%	1	0.3%	-2%	C=CCC(=O)OCCCCCCOc1ccc(C(=O)O)cc1
1%	-6	0.4%	1%	COCCn1nnnc1C(c1cc2ccc(OC)cc2[nH]c1=O)N1CCN(C2CCCCC2)CC1 (stereo not given)
-1%	-1	4.4%	17%	CSc1nnnn1-c1c(C)cccc1C
-3%	2	1.7%	6%	CCN(CC)S(=O)(=O)c1cccc(C(=O)N[C@H](C(=O)OCC(N)=O)C(C)C)c1
-2%	-10	0.1%	-7%	O=C(Nc1cccnc1)c1sc(Nc2ccccc2F)nc1-c1ccccc1
-12%	8	0.2%	10%	CCN(CC)CCCNC(=O)CSc1nc2c(c(C(F)(F)F)n1)CCc1ccccc1-2
-32%	6	-0.6%	0%	Brc1ccc2nc(N3CCCC3)sc2c1
-1%	-4	/	/	COC(=O)c1ccc(CSc2ccc3nnc(-c4ccc(OC)cc4)n3n2)o1

(continued)
miR-21 FLuc	GLA inh pH 4.5	Rango complex inh	Rango dissoc inh	SMILES
0%	/	-1.2%	-6%	CCC1CCCCN1CCCNC(=O)c1ccc2c(c1)NC(=O)CS2 (stereo not given)
-2%	3	-1.6%	1%	CC(C)NC(=O)C1CCN(C2CCN(Cc3nc(C(C)C)cs3)CC2)CC1
0%	2	-1.8%	20%	COc1ccc(N2CCN(C(=O)c3cccn4c(=O)c5ccccc5nc34)CC2)cc1
-9%	/	-1.9%	?	COCCNC(=O)c1ccc(CSc2nc3ccccc3s2)cc1
/	/	-1.4%	1%	O=C1N[C@@H](Cc2ccccc2)COC(=O)[C@H](Cc2ccc(F)cc2)CC/C=C/C[C@@H]1CC(=O)N(CCO)Cc1ccccc1
23%	-8	0.3%	1%	Cc1ccc(S(=O)(=O)N(CC(=O)N=Nc2c(O)[nH]c3ccccc23)c2ccc(C)c(C)c2)cc1
2%	/	4.7%	-8%	O=[N+]([O-])c1cc([N+](=O)[O-])c(Oc2c(Cl)cccc2Cl)cc1NN1CCCCC1
-6%	0	-1.9%	-8%	COc1ccccc1N1CCN(C(c2cc3cc(C)ccc3[nH]c2=O)c2nnnn2C2CCCC2)CC1 (stereo not given)

Continuation.
miR-21 FLuc	GLA inh pH 4.5	Rango complex inh	Rango dissoc inh	SMILES
-4%	-25	1.5%	1%	O=C(NCc1ccco1)c1ccccc1F
0%	3	2.8%	17%	OC(CN1CCN(Cc2ccc3c(c2)OCO3)CC1)c1c[nH]c2ccccc12 (stereo not given)
/	/	-0.7%	10%	COc1cc(C)ccc1NC(=O)Cc1csc(NC(=O)Nc2ccccc2OC)n1
-59%	7	3.9%	-17%	COC(=O)C1C(=O)c2c([nH]c(C(=O)OC3CCCCCC3)c2C)CC1C (stereo not given)
-3%	/	-3.9%	-8%	CN(Cc1ccccc1)S(=O)(=O)c1nnc(NC(=O)c2ccc(F)cc2)s1
-8%	3	1.3%	-15%	O=C(Cn1ncc2c(=O)oc3ccccc3c21)NCCN1CCN(c2ccccc2F)CC1
-7%	/	-2.7%	10%	CSc1ccc(C(=O)C2CCCN(C(=O)c3cc(C)n(C)n3)C2)cc1 (stereo not given)
-5%	-1	-0.2%	-10%	CC(=O)C1=C(c2ccccc2)OC(N)=C(C#N)C1c1ccccc1F (stereo not given)

The results go on.
miR-21 FLuc	GLA inh pH 4.5	Rango complex inh	Rango dissoc inh	SMILES
0%	-8	0.0%	34%	C=CCNC(=O)CN(c1ccc(F)c(Cl)c1)S(C)(=O)=O
-5%	3	-0.1%	0%	CCC(C)NC(=O)CN1C(=O)C(CC)Sc2ccccc21 (stereo not given)
-3%	4	-3.7%	3%	CCOc1ccc(-n2c(SCC(=O)Nc3ccc(OC)cc3)nc3c(c2=O)SCC3)cc1
7%	-4&-3	-1.5%	6%	COC(=O)c1cccc(C23CC4(C2)[C@H](CN(Cc2cccnc2)[C@@H]4c2ccccc2)C3c2ccccc2)c1 (stereo not given in full)
-29%	3	0.2%	-3%	O=C(OCC(=O)N1CCOCC1)c1ccc2c(c1)OCCO2
/	/	-6.2%	-7%	Cn1c(SCC(=O)NNC(=O)c2ccccc2Br)nnc1C(F)(F)F
-8%	-9	-2.9%	-1%	O=C(CN1CCOCC1)N/N=C/c1ccc(-c2ccc(Br)cc2)o1
4%	/	-3.4%	-2%	COc1cccc(CNC2CCCCCCC2)c1OC

Next structures:
miR-21 FLuc	GLA inh pH 4.5	Rango complex inh	Rango dissoc inh	SMILES
/	/	-0.1%	16%	O=C(Nc1ccc2c(c1)CCC2)c1cc(F)cc(F)c1
-4%	-10	2.1%	8%	O=C(c1ccc(S(=O)(=O)N2CCCCC2)cc1)N1CCN(c2ccccc2F)CC1
3%	/	-0.6%	2%	CCOc1ccc(/C=C2\SC(=S)N(CCC(=O)Nc3ccc(C(=O)O)cc3)C2=O)cc1
/	/	-1.2%	1%	COc1cccc(C(=O)NCC(c2cccs2)N2CCOCC2)c1 (stereo not given)
5%	3	-2.9%	0%	CC(C)c1nnc(NC(=O)CCC(=O)Nc2ccc3cn[nH]c3c2)s1
0%	2	-0.3%	4%	Cc1cc(C(F)(F)F)nn1Cc1n[nH]c(=S)n1-c1cccc(Cl)c1
1%	-7	-1.1%	8%	CNC(=O)COC(=O)/C=C/c1cccc(F)c1
3%	0	2.2%	-10%	COC(=O)CNc1nc(Cl)nc(Nc2ccc(Cl)cc2)n1

(further entries)
miR-21 FLuc	GLA inh pH 4.5	Rango complex inh	Rango dissoc inh	SMILES
-2%	/	-1.6%	-6%	CCc1ccc(-c2cc(C)no2)cc1S(=O)(=O)Nc1cc(C)ccn1
9%	5[21.1 µM]	-1.3%	-2%	CC(C)CCN(C(=S)Nc1cccc(F)c1)C1CCN(C(C)C)CC1
-10%	2	-4.3%	?	CCC1(CC)Cc2ccccc2C(C2=C(O)CC(C)(C)CC2=O)=N1
-1%	-2	?	?	CCOC(=O)CC(=O)c1cc(OC)c(OC)c(OC)c1
/	/	-1.3%	15%	Cc1cc(NC(=O)C(C)SCC(=O)Nc2ccccc2C(C)(C)C)no1 (stereo not given)
30%	-7	2.0%	6%	CCOC(=O)c1c(CSC(=N)N)n(-c2ccc(C)cc2)c2cc(Br)c(OC(C)=O)cc12
/	/	-2.8%	12%	O=C(NCc1cccnc1)C(=O)Nc1cc2c3c(c1)CC(=O)N3CCC2
-4%	-9	0.5%	0%	CC(C)(CO)Nc1nc(N2CCCC2)nc(N2CCCC2)n1
-3%&-3%	/	-0.1%	0%	CCC(=O)N1CCc2cc(S(=O)(=O)CCC(=O)N3CCN(c4ccccc4F)CC3)ccc21
